Compound activity (PubChem)
VDR inh: Inhibitors of the vitamin D receptor (VDR): qHTS; Potency, µM, for inactives: max response, negative = inhibition, hits mostly inhibitors; 400,000 compounds, 0.93% hits; Vitamin D3 receptor (Homo sapiens), P11473; VDR-SRC2-3 peptide fluorescence polarization, 2 h; AID 504847, 2011; active = well fitted inhibition curve with a large enough effect; inconclusive = small, poorly fitted or top-dose-only effect, or another doubt; inactive = no such curve, though single readings can be large or run the other way; also: series mostly up to about 120 µM
Target sequence (P11473 whole entry, looked up): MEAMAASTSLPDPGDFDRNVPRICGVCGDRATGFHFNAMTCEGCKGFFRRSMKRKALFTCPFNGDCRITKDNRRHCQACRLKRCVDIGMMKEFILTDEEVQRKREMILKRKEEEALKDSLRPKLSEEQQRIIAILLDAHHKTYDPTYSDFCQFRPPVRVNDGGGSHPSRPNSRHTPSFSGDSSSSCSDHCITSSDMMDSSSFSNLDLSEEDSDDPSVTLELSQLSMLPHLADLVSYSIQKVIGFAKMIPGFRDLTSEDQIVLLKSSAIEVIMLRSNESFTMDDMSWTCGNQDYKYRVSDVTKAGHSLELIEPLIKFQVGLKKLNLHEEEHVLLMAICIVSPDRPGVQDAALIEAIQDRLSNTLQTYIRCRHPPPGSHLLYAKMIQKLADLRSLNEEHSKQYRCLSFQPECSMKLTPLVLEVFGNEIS
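The screen uses fluorescence polarization to detect compounds that interfere with recruitment of the SRC2-3 coactivator peptide to VDR; plates are read after 2 h at room temperature.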
An asterisk follows results filed as active; ? = inconclusive; & = joins results of further samples. % is scaled to controls: 0 for no effect and ±100 for the full control effect; potency is read from the fitted curve at half-maximal effect. This is a subset. The share of hits here may be higher or lower than overall.

VDR inh,canonical_smiles
-3%,O=C(CSc1ccc(-c2cccnc2)nn1)N1CCCCCC1
19%,CC(C)CC(=O)Nc1cccc(-c2cn3cccnc3n2)c1
-10%,COc1ccc(CN2C(=O)c3ccccc3C(/C=N\OCc3ccc(F)cc3)C2=O)cc1 (stereo not drawn)
2%,COc1ccc2c(c1)OC[C@H]1[C@H]2N2C(=O)c3cc(Cl)ccc3NC(=O)[C@@]2(C)[C@H]1c1ccccc1
0%,O=S(=O)(Cc1ccccc1)N1CCCCC1
-5%,COC(=O)Cn1ncn2cccc2c1=O
1%,COC(=O)Nc1ccc(S(=O)(=O)Nc2cc(C(F)(F)F)c[nH]c2=O)cc1
11%,CO[C@@H]1[C@@H]2OP(=O)(O)OC[C@H]2O[C@H]1n1c(Sc2ccc(Cl)cc2)nc2c(N)ncnc21
4%,Cc1c(Cl)cccc1-n1ncc(C(=O)N2CCOCC2)c1C1CCN(C(=O)OC(C)(C)C)CC1
-3%,COc1ccc(C(=O)Nc2cccc(C(=O)OCc3cc(=O)n4c5c(sc4n3)CCCC5)c2)cc1
0%,Clc1ccc(C(c2nnnn2C2CCCCC2)N(Cc2cccnc2)Cc2ccco2)cc1 (stereo not drawn)
-20%,O=C(COc1ccc(Cl)cc1Cl)N/N=C/c1ccc(OC2OC(CO)C(O)C(O)C2O)cc1 (stereo not drawn)
6%,Clc1ccc2nc(-c3ccccc3)c(CN3CCOCC3)n2c1
16%,CCOC(=O)NC(Nc1ccc(S(N)(=O)=O)cc1)(C(=O)OCC)C(F)(F)F (stereo not drawn)
-9%,Nc1[nH]ncc1S(=O)(=O)c1ccccc1
16%,O=C(c1ccc(S(=O)(=O)Nc2ccccc2)cc1)N1CCC1
-8%,CCN(CC)C(=S)SCC(=O)Nc1nc(=O)c2ccccc2s1
26%,Cc1cc(C)c(C#N)c(SCC(O)COc2ccc(Br)cc2)n1 (stereo not drawn)
3%,O=[N+]([O-])c1cc(F)c(N2CCOCC2)cc1N1CCCCC1
-27%,CCOC(=O)c1ccccc1NC(=O)CCOc1ccccc1
-12%,C(=C\c1ccco1)/c1nc2ccccc2[nH]1
-7%,CN(CCO)CCOCCOc1cccc2ccccc12
3%,Nc1nc(NCCO)nc(NCC2CCCO2)c1[N+](=O)[O-] (stereo not drawn)
-2%,Cn1c(N/N=C2\CCCc3ccccc32)nc2c1c(=O)n(Cc1ccc(F)cc1)c(=O)n2C
?,NC(CSCc1cccc(Br)c1)C(=O)O (stereo not drawn)

Rewritten bar-delimited: entries from further up
structure | VDR inh
Nc1nc(NCCO)nc(NCC2CCCO2)c1[N+](=O)[O-] (stereo not drawn) | 3%
COC(=O)Nc1ccc(S(=O)(=O)Nc2cc(C(F)(F)F)c[nH]c2=O)cc1 | 1%
COc1ccc(CN2C(=O)c3ccccc3C(/C=N\OCc3ccc(F)cc3)C2=O)cc1 (stereo not drawn) | -10%

Other results follow:
VDR inh,canonical_smiles
-4%,CC1C2CCC3C4CC=C5CC(N(C)C)CC[C@@]5(C)C4CC[C@@]32CN1C (stereo partly drawn)
-15%,Clc1ccc(-c2nnc3n2CCCS3)cc1
6%,CCCn1c(=N)c(C(=O)NCC2CCCO2)cc2c(=O)n3cc(C)ccc3nc21 (stereo not drawn)
-4%,O=C(Nc1cccc(F)c1)C1CCCN(c2cnccn2)C1 (stereo not drawn)
3%,COc1ccc(OC)c(CCNC(=O)Cc2ccc(NC3=NC4CS(=O)(=O)CC4S3)cc2)c1 (stereo not drawn)
-16%,OC[C@H]1OC(Nc2ccc(N=Nc3ccccc3)cc2)[C@@H](O)[C@@H](O)[C@@H]1O (stereo partly drawn)
-11%,O=C(c1cccc(F)c1)N1CCC2(CC1)CN(c1ccncc1)C2
-6%,CCCc1cc(N2CCN(c3cc(Cl)ccc3C)CC2)n2cnnc2n1
16%,COc1cc2c(cc1OC)C(C1(O)CCCCC1)NCC2 (stereo not drawn)
14%,NC(=O)NC(c1ccccc1)c1cccc2ccccc12 (stereo not drawn)
-13%,N#Cc1nc(N2CCCC2)nc(N(c2ccccc2)c2ccccc2)n1
2%,COc1ccc(C)cc1NC(=O)c1ccc2c(c1)C(=O)N(Cc1ccncc1)C2=O
8%,C/C=C/c1ccc(OCC(=O)Nc2ccncc2)c(OC)c1
-20%,COc1ccc(NC(=O)c2ccc3c(c2)OCCO3)cc1OC
-25%,COc1cc(C(=O)Nc2cccc(OCc3cc(=O)n4cc(C)sc4n3)c2)cc(OC)c1OC
-2%,CCCCCCC1(C)NC(c2ccc3c(c2)OCO3)=CC(c2cc(Br)ccc2O)N1 (stereo not drawn)
0%,COc1ccc(CN2C(=O)[C@@H]3Cc4c([nH]c5ccccc45)C(C)(C)N3C2=O)cc1
-1%&4%,CCCCC/C=C\C/C=C\C/C=C\C/C=C\CCCCCC(=O)O
3%,CC1CCc2c(sc3ncn(CC(=O)N=Nc4c(O)[nH]c5ccccc45)c(=O)c23)C1 (stereo not drawn)
-13%,CCn1c(SCC(=O)Nc2ccccc2)nnc1-c1cccs1
0%,CCN(CC(=O)N1CCOCC1)S(=O)(=O)c1cc(Cl)ccc1Cl
-20%,COc1cc(NS(=O)(=O)c2ccc(N/C=C\C(=O)c3ccc(C)cc3)cc2)nc(OC)n1
-11%,Cc1cc(C(=O)Nc2ccccc2Cl)c2ccccc2n1
2%,COc1ccc(S(=O)(=O)Nc2cc(-c3cn4ccccc4n3)ccc2C)cc1
-2%,CCCN(CC(=O)Nc1ccccc1OC)C(=O)c1cccc(S(=O)(=O)Nc2ccc(OC)cc2)c1

The last 5 records of the part before are carried over, then new ones follow.
VDR inh,canonical_smiles
0%,CCN(CC(=O)N1CCOCC1)S(=O)(=O)c1cc(Cl)ccc1Cl
-20%,COc1cc(NS(=O)(=O)c2ccc(N/C=C\C(=O)c3ccc(C)cc3)cc2)nc(OC)n1
-11%,Cc1cc(C(=O)Nc2ccccc2Cl)c2ccccc2n1
2%,COc1ccc(S(=O)(=O)Nc2cc(-c3cn4ccccc4n3)ccc2C)cc1
-2%,CCCN(CC(=O)Nc1ccccc1OC)C(=O)c1cccc(S(=O)(=O)Nc2ccc(OC)cc2)c1
-15%,COc1cc2c3c(n(C)c(=O)c2cc1OC)-c1cc2c(cc1C3=O)OCO2
3%,O=C(O)CCCC(=O)N1CCN(c2ncccn2)CC1
2%,Cc1ccc(S(=O)(=O)Nc2ccc3c(c2)n(C)c(=O)n3C)c(C)c1
1%,CCN(CC)C(=O)[C@H]1CC(CC(=O)NCCCn2ccnc2)C(=O)N2CCc3c([nH]c4ccc(OC)cc34)[C@]12C (stereo partly drawn)
10%,C=CCn1c(SCC(N)=O)nnc1-c1cc(Br)ccc1O
14%,c1ccc2c(c1)nc1n2C2(N3CCOCC3)CCCC2C1N1CCOCC1 (stereo not drawn)
-6%,S=C(NCc1ccccc1)N1CCc2ccccc2C1
-9%,CCOCCCNC(=O)Cn1cnc2sc(C)c(S(=O)(=O)N3CCN(c4ncccn4)CC3)c2c1=O
6%,N/C(=N\OC(=O)c1ccc2ccccc2c1)c1ccncc1
10%,COc1ccc(C(=O)COC(=O)C2CCCN2C(=O)C23CC4CC(CC(C4)C2)C3)cc1 (stereo not drawn)
-2%,O=C1c2cc(S(=O)(=O)N(CCO)CCO)ccc2-c2ccc(S(=O)(=O)N(CCO)CCO)cc21
-10%,CCc1nnc(NC(=O)c2ccc(-c3ccccc3F)o2)s1
-5%,Cc1cc(C(=O)NC(C)C2CC2)c(Cl)cc1Cl (stereo not drawn)
14%,Cn1c(=O)cc(OCC(=O)NCCCN2CCN(c3ccccc3F)CC2)c2ccccc21
4%,COc1ccc(-n2nc(C(=O)NCC(=O)N3CCN(C)CC3)c3ccccc3c2=O)cc1OC
-2%,Cc1ccn(CCC(=O)N2c3ccccc3CC2C)n1 (stereo not drawn)
-22%,CCOC(=O)C1CCCN(C(=O)CN(c2ccc(OC)cc2)S(=O)(=O)c2c(C)noc2C)C1 (stereo not drawn)
-3%,CCc1ccccc1N(CC(=O)N1CCN(c2ccccc2F)CC1)S(C)(=O)=O
-19%,Oc1ccc2ccccc2c1CNc1ccccn1
2%,O=C(CSc1ncnc2nc[nH]c12)N1CCN(c2ccccc2)CC1
16%,CC1CCCCN1CCNC(=O)c1ccc2c(=O)n(CCc3ccccc3)c(=O)[nH]c2c1 (stereo not drawn)
1%,O=C1OCCC1Sc1nnc2c(n1)[nH]c1ccccc12 (stereo not drawn)
1%,CCCCN(Cc1cc2ccccc2[nH]c1=O)C(=O)c1cccc(Cl)c1
-14%,COc1ccccc1C(=O)Nc1cccc(NC(=O)c2ccccc2C)c1
-1%,CCCOn1c(OCC(C)C)nc2ccccc2c1=O

Sorted by heavy-atom count (rising): part of the list above.
VDR inh,canonical_smiles
-5%,Cc1cc(C(=O)NC(C)C2CC2)c(Cl)cc1Cl (stereo not drawn)
6%,N/C(=N\OC(=O)c1ccc2ccccc2c1)c1ccncc1
16%,CC1CCCCN1CCNC(=O)c1ccc2c(=O)n(CCc3ccccc3)c(=O)[nH]c2c1 (stereo not drawn)

(next part)
VDR inh,canonical_smiles
0%,CCC1OC(c2ccc([N+](=O)[O-])cc2)=Nc2ccccc21 (stereo not drawn)
17%,Cc1ccc(-c2nnc3c4ccccc4c(C)nn23)cc1S(=O)(=O)N1CCN(CCO)CC1
-10%,Clc1ccccc1Cn1nnc2ccccc21
0%,Cc1ccc(S(=O)(=O)Nc2ccc(Cl)cn2)cc1C
-6%,CC12CCC(=O)N1C(C(=O)NNC(=O)c1ccccc1)CS2 (stereo not drawn)
-1%,CN(C)/C(=N\O)c1c(Cl)cccc1Cl
5%,CNC(=O)c1ccc(NC(=O)/C=C/c2cccc(F)c2)cc1
?,Cc1onc(-c2ccccc2)c1C(=O)NCCCc1ccccc1
-1%,Cc1ccc(OCC(=O)O)c(-n2nc3ccccc3n2)c1
-1%,COc1ccccc1OCCCOc1c(C)cc(C)cc1Br
5%,Cc1c(-c2ccccc2)nc(N)c(C#N)c1-c1ccco1
-5%,COc1ccc(CNc2ncc(-c3ccccc3)n2C)cc1
-6%,CCc1c(C2(O)CCCCC2)[nH]c2cc(C(F)(F)F)ccc12
-8%,C/C(Cc1ccccc1)=N\NC(=O)c1cccnc1
-1%,COc1ccc(OCCOCCN2CCc3ccccc3C2)cc1
11%,CCOc1ccc(NC(=O)C/C(N)=N/O)cc1
-8%,CCOC(=O)N1CCN(C(=O)COc2cccc3c2CCN(Cc2ccccc2C)C3=O)CC1
2%,CC(OC(=O)c1cccc(NS(C)(=O)=O)c1)C(=O)Nc1ccc(N2CCOCC2)cc1 (stereo not drawn)
-1%,COc1ccccc1N1CCN(/N=C/c2cccc(OC)c2OC)CC1
-10%,COc1ccc(C(CNC(=O)c2oc3ccccc3c2C)N2CCCC2)cc1 (stereo not drawn)
-6%,Cc1ccc([N+](=O)[O-])c(OCCCN2CCCCCC2)c1
-7%,CCOc1ccc2nc(SCC(=O)NC(=O)NCc3ccco3)[nH]c2c1
-15%,Cc1ccccc1-n1ncc(C(C)NC(=O)c2ccco2)c1C (stereo not drawn)
-5%,CCc1nc2ccc(C(=O)N3CCN(c4cccc(C(F)(F)F)c4)CC3)cc2nc1CC
?,CCC(C)NC(=O)CCn1c(=O)c2cccn2c2ccc(F)cc21 (stereo not drawn)

Grouped by structure: those above with a cyano group (three)
VDR inh,canonical_smiles
26%,Cc1cc(C)c(C#N)c(SCC(O)COc2ccc(Br)cc2)n1 (stereo not drawn)
-13%,N#Cc1nc(N2CCCC2)nc(N(c2ccccc2)c2ccccc2)n1
5%,Cc1c(-c2ccccc2)nc(N)c(C#N)c1-c1ccco1

The list goes on.
VDR inh,canonical_smiles
8%,O=C(NCc1ccccc1)C(c1cccnc1)N(Cc1ccco1)C(=O)c1ccccn1 (stereo not drawn)
6%,NCC(c1ccccc1)c1c[nH]c2ccccc12 (stereo not drawn)
0%,COc1ccc(NC(=O)CSC2=NN3CCCC(=O)N=C3S2)c(OC)c1
-10%,COC(=O)C(NC(=O)CCc1c(C)nc2cc(-c3cccc(F)c3)nn2c1C)C(C)C (stereo not drawn)
0%,Cc1ccc(NC(=O)c2oc3ccccc3c2C)c([N+](=O)[O-])c1
-8%,COC(=O)c1ccc(CNC(=O)C2CCC(=O)N(CCc3ccccc3)C2)cc1 (stereo not drawn)
7%,CN(C)Cc1c(C(=O)N/N=C/CCc2ccccc2)nnn1-c1nonc1N
2%,CC(=O)Oc1ccc(/C=C(\NC(=O)c2ccco2)C(=O)Nc2ccc(C(C)=O)cc2)cc1
-1%,O=C(c1cnc2ccccn2c1=O)N1CCCc2ccccc21
-5%,CC(C)(C)C(=O)NC(n1cnc2c(N3CCOCC3)ncnc21)C(Cl)(Cl)Cl (stereo not drawn)
-18%,COc1cc(C(C)=O)ccc1Oc1ncnc2c1cnn2-c1ccc(C)c(C)c1
-13%,Cc1cc2c(ncn2C(C)C)c(NS(=O)(=O)c2ccc(F)cc2)c1C
-20%,Cc1cc(=O)n2nc(N3CCCC(C(=O)NCc4ccc(Cl)cc4)C3)sc2n1 (stereo not drawn)
?,CCC1CN(C(=O)N2CCC(C(=O)Nc3ccccc3OC)CC2)c2ccccc2O1 (stereo not drawn)
15%,CC(=O)N1CCc2[nH]c3ccccc3c2C1
13%,COC(=O)CCCC(=O)N1CCCC(CCC(=O)NCc2ccc(F)c(F)c2)C1 (stereo not drawn)
